ClpP mod – qHTS Assay for Activators of ClpP; purified B. subtilis ClpP, FRET peptide cleavage, 20 min; Potency, µM (titrated, usually from 57.5 µM), for inactives: top-dose activity change, negative = active; hit rate 1.9% among 340,000; AID 651965, 2013; active = well fitted falling curve with a large enough effect; inconclusive = small, poorly fitted or top-dose-only effect; inactive = no such curve, though single readings can be large or run the other way; note: potency is the fitted concentration of half-maximal effect; the source files actives as falling curves though it sought activators and does not explain the sign; nearly all actives have a fitted effect of over 65% in size; many hits overshoot -100%
Target sequence (P80244 whole entry, looked up): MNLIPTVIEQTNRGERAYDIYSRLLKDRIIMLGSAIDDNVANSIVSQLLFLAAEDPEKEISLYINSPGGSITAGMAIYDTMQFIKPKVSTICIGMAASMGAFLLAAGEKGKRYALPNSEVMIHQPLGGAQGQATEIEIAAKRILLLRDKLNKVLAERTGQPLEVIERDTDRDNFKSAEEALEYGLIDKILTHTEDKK
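Purified B. subtilis ClpP, 10 microg/mL final in Tris/HCl pH8 with KCl, BSA, glycerol and Tween-20, cleaved an Abz/nitrotyrosine-quenched decapeptide. Fluorescence (ex 320, em 430) was read at 0 and 20 min at room temperature. Delta was normalized to 5.8 microM ADEP and DMSO/no-enzyme controls.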
gsp antagonist – gsp mutant antagonism; gsp-mutant cells, cAMP HTRF, 30 min; control for the full effect not named in the record; Potency, µM (titrated, usually from 76.9 µM), for the others: at the top dose activity change, negative = inhibition, actives largely listed as inhibitors; hit rate 0.4% among 340,000; AID 624288; active = falling curve of any shape with a large fitted effect; inconclusive = falling curve, mostly with a smaller effect; inactive = flat or rising curve; cell line not stated here;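 note: intracellular cAMP measured with PDE inhibitor Ro 20-1724 present during compound exposure; potency is the fitted concentration of half-maximal effect; % is set by controls: 0 for no effect and ±100 for the full control effect; nearly all actives have a fitted effect of over 65% in size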
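Measurement of cellular cAMP by homogeneous time-resolved fluorescence following a 30 min compound exposure at 37C. The PDE inhibitor […] was present throughout; the assay buffer was DPBS with 0.05% BSA and 0.005% Tween 20.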
D2 ag – activates the human D2 dopamine receptor; P14416; DiscoveRx PathHunter D2 beta-arrestin, luminescence, 90 min; 100% = 57 uM dopamine signal; activation, % (no concentration beside the values); hit rate 0.084% among 360,000; in the data active = activation above about 40%; inconclusive = about 15% to 40%; inactive = below about 15%; note: compound concentration not given in the record; the text of the record calls up to 30% inactive
Target sequence (P14416 whole entry, looked up): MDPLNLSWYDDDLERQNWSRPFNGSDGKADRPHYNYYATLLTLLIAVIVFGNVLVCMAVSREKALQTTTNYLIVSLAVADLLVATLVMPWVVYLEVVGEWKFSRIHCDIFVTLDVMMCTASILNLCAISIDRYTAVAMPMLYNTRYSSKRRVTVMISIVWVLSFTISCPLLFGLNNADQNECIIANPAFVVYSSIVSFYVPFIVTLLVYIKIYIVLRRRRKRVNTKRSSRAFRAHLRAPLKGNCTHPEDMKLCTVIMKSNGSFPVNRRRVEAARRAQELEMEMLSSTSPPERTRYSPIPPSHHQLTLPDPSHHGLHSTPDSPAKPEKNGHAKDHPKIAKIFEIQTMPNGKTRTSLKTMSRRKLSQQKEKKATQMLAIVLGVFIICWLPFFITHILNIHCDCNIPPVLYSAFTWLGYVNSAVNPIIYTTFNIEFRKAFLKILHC
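Agonist mode: compounds alone added to overnight-plated D2 PathHunter cells for 90 min at 37 C, with 57 uM final dopamine (EC100) defining full response. Beta-arrestin recruitment detected by chemiluminescent reagent, read after 1 h at ambient temperature.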
PINK1 expr mod – PINK1 expression modulation; PINK1 immunofluorescence, high-content cytometry, 24 h; Potency, µM (doses to about 76.6 µM), for inactives: at the highest dose activation (PINK1 increase), actives largely listed as activators; hit rate 0.2% among 410,000; AID 624263; active = well fitted activation curve with a large enough effect; inconclusive = small, poorly fitted or top-dose-only effect; inactive = flat fitted curve, though single readings scatter; cell line not stated here;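 note: potency is the fitted concentration of half-maximal effect; % of control where 0% means no effect; nearly all actives have a fitted effect of over 65% in size; a mitochondrial uncoupler was the plate control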
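Stable cell line, 250 cells/well, 12 h attachment; compounds pinned at 5 concentrations, 24 h; CCCP control. Fixed with nuclear dye, primary antibodies 12 h at 10 degrees C, secondary plus cell stain; laser-scanning cytometer read.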
gsp agonist – gsp mutant agonism | gsp mutant cells, cAMP HTRF, 30 min; control for the full effect not named in the record | Potency, µM (series often up to 76.9 µM), without a hit: at the top dose activation (cAMP increase), usual class: activators | hit rate 0.13% among 340,000; active = well fitted activation curve with a large enough effect; inconclusive = small, poorly fitted or top-dose-only effect, or another doubt; inactive = no such curve, though single readings can be large or run the other way; cell line not stated here;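 note: phosphodiesterase inhibitor Ro 20-1724 added with compounds to block cAMP breakdown; potency is the fitted concentration of half-maximal effect; nearly all actives have a fitted effect of over 60% in size; about a fifth of the inactives were tested at one dose only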
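Cells in DMEM/10% FBS with G418 were pretreated with compounds in DMSO plus […] (300 uM stock) for 30 min at 37C. cAMP was measured by HTRF (cAMP-d2 plus anti-cAMP antibody-K) after 30 min at room temperature.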
Menin-MLL FL inh – inhibitors of human menin-MLL interaction, wild-type MLL peptide; Fluorescence polarization, fluorescein-MLL peptide displacement from menin; AID 1766; FP activity change, % at 61.4 µM; 290,000 tested, under 10 active; inconclusive = falling polarisation curve, or a change in total fluorescence; inactive = total fluorescence flat and polarisation flat or rising; no compound was filed as active; the % refers to the polarisation; negative = inhibition;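 note: % of control where 0% means no effect; inhibitors lower the polarisation; unlabelled MLL peptide was the positive control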
Sfp inh – Sfp phosphopantetheinyl transferase inhibition; Biochemical Sfp PPTase activity, qHTS; Potency, µM, for the others: max response, negative = inhibition, hits mostly inhibitors; Q9F4F7; hit rate 3.5% among 310,000; AID 1490; active = well fitted inhibition curve with a large enough effect; inconclusive = small, poorly fitted or top-dose-only effect, or another doubt; inactive = no such curve, though single readings can be large or run the other way;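 note: the enzyme is Sfp with the accession as filed and its product quenches rhodamine fluorescence; potency is the fitted concentration of half-maximal effect; 0% = enzyme reaction without inhibitor and -100% = no enzyme wells; top concentration of the series not given in the record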
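Buffer: 50 mM Hepes-Na pH 7.6, 10 mM MgCl2, 0.01% Nonidet P-40, 0.01% BSA. Enzyme 15 nM, pre-exposed to compound 15 min; substrates then added and fluorescence change tracked over 30 min.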
* marks the source's active call; other numbers are inactive results; [ ] = another dose, or the depositor's remark.

COc1ccc(C2(C(=O)NC3CCCCC3)CCOCC2)cc1OC was read as ClpP mod 1.8%, gsp antagonist 12%, D2 ag 1.0, PINK1 expr mod -0.3%, gsp agonist 23%, Menin-MLL FL inh 3.9 and Sfp inh 3%.
`COC(=O)c1nc(N)sc1C(C)C` gave gsp antagonist 3%, D2 ag -3.8, PINK1 expr mod 2.2%, gsp agonist 0%[15.4 µM], Menin-MLL FL inh -4.2 and Sfp inh 20%.
CCn1c(CCNC(=O)c2ccc(F)cc2)nc2ccccc21 was read as ClpP mod 2.4%, gsp antagonist -10%, D2 ag -0.2, PINK1 expr mod 0.0%, gsp agonist -33%[inhibitor], Menin-MLL FL inh 1.1 and Sfp inh -5%.
`Cc1ccc(-c2noc(C3CCN(C(=O)Nc4ccc(C#N)cc4)CC3)n2)o1` gave ClpP mod -1.2%, gsp antagonist inconclusive, D2 ag 0.3, PINK1 expr mod -0.5%[38.3 µM], gsp agonist -25%, Menin-MLL FL inh 0.0 and Sfp inh 6%.
For Cc1c(NC(=O)c2ccc(N(C)S(C)(=O)=O)cc2)c(=O)n(-c2ccccc2)n1C the results were ClpP mod 0.8%, gsp antagonist 14%, D2 ag -6.7, PINK1 expr mod 0.9%, gsp agonist -7%[15.4 µM], Menin-MLL FL inh 0.0 and Sfp inh 18%.
For COc1ccc(C(=O)NN(c2ccccc2)c2ccccc2)cc1 the results were ClpP mod -0.9%, gsp antagonist 13%, D2 ag -1.4, PINK1 expr mod 6.8%[38.3 µM], gsp agonist 14%, Menin-MLL FL inh 0.5 and Sfp inh 4%.
Nc1cc(C(=O)OCC(=O)NNC(=O)c2cccs2)ccc1Cl was read as ClpP mod -1.4%, gsp antagonist -4%, D2 ag -5.0, PINK1 expr mod 1.5% and gsp agonist -7%[15.4 µM].
`CCOC(=O)Nc1c(O)ccc2oc(C)c(-c3ccccc3)c12` gave ClpP mod -3.8%, gsp antagonist 0%, D2 ag -3.4, PINK1 expr mod 0.2%, gsp agonist inconclusive, Menin-MLL FL inh 2.3 and Sfp inh 15%.
Cc1ccc(C)c(CN2C(=O)C3CCCN3c3ccc(C#N)cc32)c1 (stereo not drawn) was read as ClpP mod -25%, gsp antagonist -1%, D2 ag -1.4, gsp agonist 10%, Menin-MLL FL inh 9.2 and Sfp inh 15%.
For CCOC(=O)N1CCN(C(=O)c2noc(C(C)C)c2[N+](=O)[O-])CC1 the results were ClpP mod -0.6%, gsp antagonist 10%, D2 ag 13, PINK1 expr mod 0.7%, gsp agonist -54%[inhibitor], Menin-MLL FL inh -3.3 and Sfp inh 6%.
`C=CCNc1nc(NCc2ccccc2)nc(OCC)n1` gave ClpP mod 0.6%, gsp antagonist 2%, D2 ag 8.4, PINK1 expr mod 2.2%, gsp agonist inconclusive, Menin-MLL FL inh -5.2 and Sfp inh 9%.
`OC(COC(c1ccccc1)c1ccccc1)CN1CCc2ccccc2C1` (stereo not drawn) gave gsp antagonist -3%, D2 ag 8.0, PINK1 expr mod 22%, gsp agonist -21%, Menin-MLL FL inh 7.0 and Sfp inh -16%.
For Cc1ccccc1Sc1ccc(N)cn1 the results were ClpP mod -26%, gsp antagonist 8%, D2 ag -16, PINK1 expr mod -0.4% and gsp agonist 11%.
Screening COc1ccc(C(=O)/C=C/Nc2ccc([N+](=O)[O-])cc2C)c(OC)c1 returned ClpP mod 1.7%, gsp antagonist 7%, D2 ag -2.5, PINK1 expr mod inconclusive, gsp agonist inconclusive, Menin-MLL FL inh 0.8 and Sfp inh 4%.
`COc1ccc(Cl)cc1NC(=O)CSc1nc(N2CCOCC2)nc(N2CCOCC2)n1` gave ClpP mod -1.7%, gsp antagonist -20%, D2 ag 1.3, PINK1 expr mod 4.7%, gsp agonist -2% and Sfp inh -16%.
For FC(F)Oc1ccccc1NC(=S)Nc1cccc(Cl)c1Cl the results were ClpP mod -0.2%, gsp antagonist 14%, D2 ag -1.5, PINK1 expr mod 9.7%, gsp agonist inconclusive, Menin-MLL FL inh 3.2 and Sfp inh -23%.
`COc1ccc(/C(C)=N/NC(=O)CNC(=O)c2cccs2)cc1OC` gave ClpP mod 0.6%, gsp antagonist -1%, D2 ag -1.2, PINK1 expr mod 2.0%, gsp agonist 12%, Menin-MLL FL inh 1.6 and Sfp inh 13%.
Screening COc1ccc(CC(=O)N[C@@H]2c3cc(OC)c(OC)cc3C[C@H]2O)cc1 returned ClpP mod -6.6%, gsp antagonist 13%, D2 ag 1.0 and PINK1 expr mod -0.7%.
Screening COc1cc(C(=O)N2CCCCCCC2)ccc1OC1CCN(C(C)=O)CC1 returned ClpP mod 1.5%, gsp antagonist 3%, D2 ag -3.6, PINK1 expr mod 0.4%, gsp agonist -38%[inhibitor], Menin-MLL FL inh -6.7 and Sfp inh -5%.
`CC(C)CC(=O)N1CCN(Cc2ccc(Br)cc2)CC1` gave gsp antagonist 8%, D2 ag 0.1, PINK1 expr mod 0.9%, gsp agonist -44%[inhibitor], Menin-MLL FL inh -11 and Sfp inh -13%.
`Cc1ccc(C)c(-n2cc(CN3CCN(C(=O)c4ncn[nH]4)CC3)c(-c3ccccc3)n2)c1` gave gsp antagonist inconclusive, D2 ag 0.2, PINK1 expr mod 0.8%, gsp agonist -14%, Menin-MLL FL inh -1.5 and Sfp inh 4%.
`COc1ccc(/C=C2\CCCC3C2=NN(C(=O)c2ccco2)C3c2ccc(OC)c(OC)c2)cc1OC` (stereo not drawn) gave ClpP mod 40%, gsp antagonist inconclusive, D2 ag -0.5, PINK1 expr mod 0.9%, gsp agonist -14%, Menin-MLL FL inh 0.2 and Sfp inh -26%.
Screening Nc1ccc2c(c1)ncn2CCCn1cnc2cc(N)ccc21 returned ClpP mod -10%, gsp antagonist 0%, D2 ag 0.2, PINK1 expr mod -5.3%[38.3 µM], gsp agonist 12%, Menin-MLL FL inh 3.1 and Sfp inh 11%.
`COc1cc(NC(=S)NC(=O)CC(C)C)ccc1NC(=O)c1cc2ccccc2o1` gave ClpP mod -29%, gsp antagonist -10%, D2 ag 0.2, PINK1 expr mod 11%, gsp agonist 27%, Menin-MLL FL inh 4.3 and Sfp inh 22%.
Screening CCOC(=O)CSc1nc2ccccc2c(=O)[nH]1 returned ClpP mod -5.1%, gsp antagonist -3%, D2 ag -4.3, PINK1 expr mod 0.7%, gsp agonist -3%, Menin-MLL FL inh 4.9 and Sfp inh -7%.
Screening O=C(c1cc(C(F)(F)F)cc(C(F)(F)F)c1)N1CCC2(CC1)CCN(c1ncccn1)CC2 returned PINK1 expr mod 1.0%, Menin-MLL FL inh -1.8 and Sfp inh 11%.
For CC(=O)c1c(O)cc(=O)n(-c2ccccc2)c1-c1ccc(C)cc1 the results were ClpP mod -2.2%, gsp antagonist 8%, D2 ag -1.2, PINK1 expr mod -2.0%, gsp agonist 3%, Menin-MLL FL inh 2.5 and Sfp inh -4%.
Screening O=C(COC(=O)C12CC3CC(CC(C3)C1)C2)NCCCc1ccccc1 returned ClpP mod -0.2%, gsp antagonist 1%, D2 ag 0.4, PINK1 expr mod -1.4%, gsp agonist 5%, Menin-MLL FL inh -3.1 and Sfp inh 5%.
For O=C1CCCc2nn(-c3ccccc3)nc21 the results were ClpP mod inconclusive, gsp antagonist 0%, D2 ag -2.3, PINK1 expr mod -0.6%, gsp agonist 5%, Menin-MLL FL inh 2.5 and Sfp inh 20%.
`COc1cc(NC(=O)c2c(OC)cccc2OC)ccc1NC(=O)c1cc2ccccc2o1` gave gsp antagonist inconclusive, D2 ag 3.0, PINK1 expr mod 1.4%, gsp agonist -63%[inhibitor], Menin-MLL FL inh 1.2 and Sfp inh 6%.
For CCOC(=O)C1CCN(C(=O)c2oc3ccc(S(=O)(=O)N4CC(C)CC(C)C4)cc3c2C)CC1 (stereo not drawn) the results were ClpP mod -0.1%, gsp antagonist -18%, D2 ag -3.1, PINK1 expr mod 3.2%, gsp agonist -1%, Menin-MLL FL inh 6.4 and Sfp inh -11%.
For COc1ccc(Br)cc1CN1CCN(c2ncccn2)CC1 the results were ClpP mod 0.8%, gsp antagonist 5%, D2 ag inconclusive, PINK1 expr mod 6.5% and gsp agonist -1%[15.4 µM].
For CC1(C)OC(=O)C(=NNc2ccc(Br)cc2)C(=O)O1 the results were ClpP mod 1.2%, gsp antagonist 6%, D2 ag -2.9, PINK1 expr mod -0.8%, gsp agonist -24%, Menin-MLL FL inh -1.6 and Sfp inh 18%.
CCOC(=O)C(C)NC(=O)c1cn(-c2ccc(OC)cc2)c(=O)c2ccccc12 (stereo not drawn) was read as ClpP mod -4.0%, gsp antagonist 6%, D2 ag -7.4, PINK1 expr mod -0.6%, gsp agonist 13%, Menin-MLL FL inh -0.5 and Sfp inh -2%.
`COCCCNC(=O)CNC(=O)c1nn(-c2ccc(OC)c(Cl)c2)c(=O)c2ccccc12` gave ClpP mod -3.7%, gsp antagonist -12%, D2 ag 2.8, PINK1 expr mod 1.8%, gsp agonist inconclusive, Menin-MLL FL inh -6.1 and Sfp inh 14%.
Screening O=C1CCCN1CCCNc1ncnc2c1[nH]c1ccccc12 returned ClpP mod 22µM*, gsp antagonist -2%, D2 ag -3.2, PINK1 expr mod 1.0%[38.3 µM], gsp agonist inconclusive, Menin-MLL FL inh 1.0 and Sfp inh -8%.
Screening CCNc1ccc(S(=O)(=O)N(C)C)cc1NCC(=O)Nc1ccccc1Cl returned gsp antagonist -15%, D2 ag 3.0, PINK1 expr mod -0.2%, gsp agonist -41%[inhibitor], Menin-MLL FL inh 3.6 and Sfp inh 2%.
COC(=O)C1(CC2CC(c3ccc(Cl)cc3)=NO2)CCN(C(=O)OC(C)(C)C)CC1 (stereo not drawn) was read as ClpP mod 2.5%, gsp antagonist -7%, D2 ag 1.9, PINK1 expr mod 2.4% and gsp agonist 7%.
For CCCC1(C(=O)OC)NC(c2ccco2)C2C(=O)N(C)C(=O)C21 (stereo not drawn) the results were gsp antagonist 6%, D2 ag 0.0, PINK1 expr mod 0.3%, gsp agonist -4%[15.4 µM], Menin-MLL FL inh 1.2 and Sfp inh 6%.

Source: PubChem BioAssay (National Center for Advancing Translational Sciences (NCATS))
